LASV entry inh = qHTS for Inhibitors of binding or entry into cells for Lassa Virus | AID 540256, 2011 | Lassa virus pseudotype entry inhibition, cell reporter; control for the full effect not named in the record | Potency, µM (series often up to 37.9 µM), inactives show at the highest dose activity change, negative = inhibition, usual class: inhibitors | actives 1.2% (n = 300,000); active means well fitted inhibition curve with a large enough effect; inconclusive means small, poorly fitted or top-dose-only effect, or effect the other way; inactive means flat fitted curve, though single readings scatter; tested in HEK293 cells; further: on the % scale 0 is the no-effect control and ±100 the full control effect; nearly all actives have a fitted effect of over 50% in size; luciferase read-out
SARS PLP yeast = qHTS of Yeast-based Assay for SARS-CoV PLP; S. cerevisiae expressing SARS-CoV PLpro, growth rescue; control for the full effect not named in the record; Potency, µM (titrated, usually from 32.9 µM), inactives show at the highest dose activity, positive = growth rescue; actives 0.19% (n = 330,000); AID 485353, 2010; active means well fitted rising curve with a large enough effect; inconclusive means small, poorly fitted or top-dose-only effect; inactive means no such curve, though single readings can be large or run the other way; further: 0% is about no effect; nearly all actives have a fitted effect of over 55% in size; growth read by luminescence after 48 h
Marburg entry inh = qHTS for inhibitors of binding or entry into cells for Marburg Virus | actives 1.8% (n = 300,000) | Potency, µM (doses to about 37.8 µM), inactives show top-dose activity change, negative = inhibition, most hits filed as inhibitors | AID 540276, 2011 | Marburg virus pseudotyped entry inhibition, cell reporter; control for the full effect not named in the record; about a third of the inactives were read at about 46 µM; active = well fitted inhibition curve with a large enough effect; inconclusive = small, poorly fitted or top-dose-only effect, or effect the other way; inactive = flat fitted curve, though single readings scatter; tested in HEK293 cells; about a fifth of its hits are not listed in these tables; further: on the % scale 0 is the no-effect control and ±100 the full control effect; luciferase read-out
Cruzain Triton = qHTS Assay for Promiscuous and Specific Inhibitors of Cruzain (with detergent); Cruzipain (Trypanosoma cruzi), P25779; purified cruzain, Z-FR-AMC fluorescence, 0.01% Triton; Potency, µM, for the others: max response, negative = inhibition, hits mostly inhibitors; actives 0.43% (n = 200,000);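 further: plate controls were neutral wells for no effect and buffer without enzyme for full effect; nearly all actives have a fitted effect of over 40% in size; top concentration of the series not given in the record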
Target sequence (P25779 123-467 limits assumed): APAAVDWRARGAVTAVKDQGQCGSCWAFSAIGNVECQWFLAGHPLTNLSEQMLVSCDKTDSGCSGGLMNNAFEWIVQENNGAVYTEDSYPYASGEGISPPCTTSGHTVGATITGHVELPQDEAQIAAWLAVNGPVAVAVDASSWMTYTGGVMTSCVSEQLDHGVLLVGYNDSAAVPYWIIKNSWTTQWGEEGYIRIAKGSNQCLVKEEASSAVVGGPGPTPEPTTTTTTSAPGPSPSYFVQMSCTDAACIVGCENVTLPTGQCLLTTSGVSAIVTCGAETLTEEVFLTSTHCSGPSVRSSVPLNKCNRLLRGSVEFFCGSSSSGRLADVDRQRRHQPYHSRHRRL
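Cruzain (1.5 nM) preincubated 15 min at RT with compound in 100 mM sodium acetate pH 5.5, 5 mM DTT, 0.01% Triton X-100. Reaction started with 2 uM Z-FR-AMC; AMC fluorescence (ex 360/em 450 nm) change over 60 s gave rate.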
2A StopGo = High Throughput Screening for Foot and Mouth Disease Virus Antivirals | Potency, µM (top dose mostly 57.9 µM), inactives show at the highest dose signal change, negative = less light | human cells with a luciferase reporter of 2A StopGo recoding; control for the full effect not named in the record | actives 1.2% (n = 410,000); active = well fitted falling curve with a large enough effect; inconclusive = small, poorly fitted or top-dose-only effect; inactive = no such curve, though single readings can be large or run the other way; tested in HEK293T cells; further: on the % scale 0 is the no-effect control and ±100 the full control effect; nearly all actives have a fitted effect of over 45% in size; luciferase light after 4 h
RE007 growth inh = qHTS Assay for Inhibitors of the HIV-1 protein Vpr; actives 0.21% (n = 360,000); Potency, µM (titrated, usually from 92.2 µM), without a hit: top-dose activity change, negative = less growth; S. pombe RE007 Vpr strain, BacTiter-Glo ATP luminescence, 24 h; control for the full effect not named in the record; active = well fitted falling curve with a large enough effect; inconclusive = small, poorly fitted or top-dose-only effect; inactive = no such curve, though single readings can be large or run the other way;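 further: on the % scale 0 is the no-effect control and ±100 the full control effect; nearly all actives have a fitted effect of over 50% in size; the assay follows cell death caused by Vpr and the record does not say whether a fall means rescue or toxicity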
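Fission yeast RE007 carrying one integrated HIV-1 vpr copy, seeded at OD 0.01 in PMG+AL medium with 23 nL pinned compound. Grown 24 h at 30 degrees; viability read by BacTiter-Glo luminescence after 5 min.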
NS1 inh = qHTS Assay for Inhibitors of Influenza NS1 Protein Function; S. cerevisiae slowed by influenza A NS1, growth recovery by OD600; Potency, µM (series often up to 46.1 µM), for inactives: at the top dose activity, positive = more growth; actives 0.4% (n = 270,000); AID 2326, 2010; active means well fitted rising curve with a large enough effect; inconclusive means small, poorly fitted or top-dose-only effect; inactive means no such curve, though single readings can be large or run the other way; further: nearly all actives have a fitted effect of over 50% in size
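Read-out: OD600 growth recovery of NS1-expressing budding yeast. Cells grown overnight at 30C in -URA glucose medium, washed, resuspended and diluted 1:100 in 2% galactose assay medium, pH 6.0. Same strain lacking NS1 served as positive control.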
Cruzain inh noDet = qHTS Assay for Promiscuous and Specific Inhibitors of Cruzain (without detergent). actives 2.3% (n = 200,000). purified cruzain, Z-FR-AMC fluorescence, no detergent. Potency, µM, without a hit: max response, negative = inhibition, hits mostly inhibitors. Cruzipain (Trypanosoma cruzi), P25779;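 further: plate controls were enzyme without inhibitor for no effect and buffer without enzyme for full effect; nearly all actives have a fitted effect of over 40% in size; top concentration of the series not given in the record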
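Purified cruzain at 1.5 nM, pre-incubated 15 min with compound at room temperature in 100 mM sodium acetate pH 5.5, 5 mM DTT, 0.00005% Triton X-100. Reaction started with 2 uM Z-FR-AMC; AMC fluorescence increase over 60 s gives rate.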
Starred values were filed as active, the others as inactive; ? = inconclusive; . = not tested or not shown; & = joins results of further samples; [ ] = remark or other dose. Unless noted, the call rests on the fitted dose curve; in most records, active means well fitted curve in the direction sought with a large enough effect; inconclusive means small, poorly fitted or top-dose-only effect, or another doubt; inactive means no such curve, though single readings can be large; an effect the other way counts as inactive or inconclusive. Potency means the concentration at half of the fitted maximal effect. Hits appear at their usual frequency; overall some 4.7% were active at least once.

SMILES	LASV entry inh	SARS PLP yeast	Marburg entry inh	Cruzain Triton	2A StopGo	RE007 growth inh	NS1 inh	Cruzain inh noDet
Cc1oc(-c2cccc(Cl)c2)nc1CN1CCC(C(=O)NCCCN2CCN(c3ccc(F)cc3)CC2)CC1	?	.	?	2.4%	?	.	.	12%
COC(=O)C1=CN(C2CCCCC2)C=C(C(=O)OC)C1c1ccc2c(c1)OCO2	.	1%	.	.	?	-5%	-4%	.
C[C@@]12C(=O)N(c3ccc(C(F)(F)F)cc3)C(=O)N1[C@@H]1c3ccccc3OC[C@@H]1[C@H]2c1ccccc1	.	2%	.	.	?	-11%	?	.
O=C(CCc1n[nH]c(=O)[nH]c1=O)Nc1cccc([N+](=O)[O-])c1	17%	-3%	-3%[46.1 µM]	.	-14%	0%	.	.
COc1ccc(S(=O)(=O)Nc2cc3c4c(oc3c3ccccc23)CCCC4=O)cc1	7.1µM*	-3%	?	0.6%	1%	-12%	6%	9%
O=C(CSc1ncnc2scc(-c3ccccc3)c12)NC1CCS(=O)(=O)C1 (configuration not stated)	7%	-1%	-21%[46.1 µM]	.	17%	-11%	6%	.
COCCN(CCOC)C(=O)c1ccc(NS(=O)(=O)c2ccc3[nH]c(=O)[nH]c3c2)cc1	?	-1%	7%	.	4%	-33%	4%	.
Cc1nn(Cc2ccc(Cl)cc2)c(Cl)c1/C=N/NC(=O)CNc1ccccc1F	-29%	15%	7%	-2.6%	-9%	-19%	-6%	-15%
CCOC(=O)Cc1csc(SCC(=O)Nc2sc3c(c2C(N)=O)CCC3)n1	0%	-3%	-18%&-18%	-4.1%	0%	2%	-52%	12%
Cc1csc2nc(CSc3nncn3-c3ccccc3)c(Br)n12	6%	1%	20%	0.1%	27%	1%	4%	10%

Brought forward from above: 5 compounds, followed by the next part.
SMILES	LASV entry inh	SARS PLP yeast	Marburg entry inh	Cruzain Triton	2A StopGo	RE007 growth inh	NS1 inh	Cruzain inh noDet
O=C(CSc1ncnc2scc(-c3ccccc3)c12)NC1CCS(=O)(=O)C1 (configuration not stated)	7%	-1%	-21%[46.1 µM]	.	17%	-11%	6%	.
COCCN(CCOC)C(=O)c1ccc(NS(=O)(=O)c2ccc3[nH]c(=O)[nH]c3c2)cc1	?	-1%	7%	.	4%	-33%	4%	.
Cc1nn(Cc2ccc(Cl)cc2)c(Cl)c1/C=N/NC(=O)CNc1ccccc1F	-29%	15%	7%	-2.6%	-9%	-19%	-6%	-15%
CCOC(=O)Cc1csc(SCC(=O)Nc2sc3c(c2C(N)=O)CCC3)n1	0%	-3%	-18%&-18%	-4.1%	0%	2%	-52%	12%
Cc1csc2nc(CSc3nncn3-c3ccccc3)c(Br)n12	6%	1%	20%	0.1%	27%	1%	4%	10%
O=C(O)CCCCNS(=O)(=O)c1ccc(Cl)c(C(F)(F)F)c1	19%	-1%	2%	9.3%	-18%	0%	4%	0%
Cc1ccc(NC(=O)Cn2nc(C(=O)Nc3ccc(C)cc3)ccc2=O)cc1	?	22%	.	1.3%	7%&-5%	19%	-5%	12%
COc1ccc(/C=C/CN2CCCC(CO)(Cc3cccc(Cl)c3)C2)cc1 (configuration not stated)	10µM*	0%	6.3µM*	.	-10%	-16%	5%	.
O=C(Nc1ccc(S(=O)(=O)N2CCOCC2)cc1)c1c(F)cccc1F	?	1%	15%[46.1 µM]	.	22%	6%	19%	.
CC(C)CCNC(=O)c1ccc(NC(=O)N2CCCCc3ccccc32)cc1	.	.	?	0.1%	-14%	.	.	-8%
COC(=O)CCC(=O)NNC(=O)Cc1ccccc1	11%	7%	8%[46.1 µM]	.	4%	-1%	0%	.
Cc1cc(S(=O)(=O)NCC(c2ccccc2)c2ccccc2)ccc1-n1cnnn1	-18%	-2%	?	3.5%	-9%	-17%	-1%	1%
Cn1c(Cc2csc(N)n2)nnc1SCC(=O)NCc1ccccc1	5%	18%	14%	-0.2%	.	3%	-11%	-1%
CC(=O)NNC(=O)CCn1c2c(c3ccccc31)CCCC2	-16%	3%	-13%[46.1 µM]	.	-21%	14%	1%	.
COc1ccc(NC(=O)c2cnc3n(c2=O)CCS3)cc1OC	.	11%	.	-10%	19%	3%	-3%	-7%
CCC1CCc2sc(C(=O)O)cc2C1 (configuration not stated)	15%	-9%	6%	-0.8%	-12%	10%	-201%	3%
Cc1cc(C)c2c(N)c(C(=O)C(C)(C)C)sc2n1	-1%	0%	12%[46.1 µM]	.	7%	-4%	6%	.
Cc1sc2ncn(CC(=O)Nc3ccc(C(C)C)cc3)c(=O)c2c1S(=O)(=O)N1CCN(c2ncccn2)CC1	7%[46.1 µM]	.	-2%[46.1 µM]	-1.6%	-10%	.	.	9%
COCCNC(=O)c1nn2c(C(F)(F)F)cc(-c3ccccc3)nc2c1Cl	.	1%	.	.	-2%	-2%	-2%	.
COc1ccc(Oc2nccc(-c3ccc(Cl)cc3)n2)cc1	-21%	-2%	3%	1.9%	-11%	-22%	5%	-3%
COc1cccc(C2c3[nH]c4ccccc4c3CCN2C(=O)Cn2cncn2)c1OC (configuration not stated)	-4%[46.1 µM]	0%	-5%[46.1 µM]	.	?	-26%	-7%	.
Cc1ccc(C(=O)OC2=CC(=O)CC(C)(C)C2)cc1	15%	8%	-1%	?	-3%	-15%	-8%	-20%
CNc1nc(Nc2ccc(C)c(Cl)c2)nc(N)c1[N+](=O)[O-]	?	-1%	?	-5.4%	72%[activator]	-24%	-3%	10%
CCOc1ccc(N(C(C)C(=O)NCCSc2ccc(Cl)cc2)S(C)(=O)=O)cc1 (configuration not stated)	?	.	-10%[46.1 µM]	-10%	-2%	.	.	?
O=C(NCCCN1CCCCC1)c1ccc2c(c1)ncn2C1CCCC1	20%[46.1 µM]	16%	-22%[46.1 µM]	.	-1%	-1%	7%	.
CCCCC(=O)NCc1ccc(Cl)cc1	0%	-12%	-7%	-2.3%	1%	10%	15%	1%
CC(=O)c1c(C(C)=O)c(C)n(-c2ccc(O)cc2)c1C	-5%	.	19%	-2.3%	-18%	0%	5%	-3%
Cc1cccc(NC(=O)CN2CCCCCC2)c1	13%[46.1 µM]	-2%	-11%[46.1 µM]	.	24%	11%	-7%	.
Cc1nn(C)c(C(=O)N2CCc3ccccc32)c1Br	8%	0%	-16%	-2.2%	-17%	.	-2%	5%
O=C(Nc1ccccc1O)c1ccc(NS(=O)(=O)c2cccc3cccnc23)cc1	.	-2%	.	.	0%	-4%	-15%	.
CC(=O)Nc1ccc(S(=O)(=O)NCCC(=O)OCC(=O)N2CCN(C(=O)c3ccco3)CC2)cc1	13%	-1%	25%	.	-13%	4%	9%	.
CCCSc1ncc(Cl)c(C(=O)Nc2c(C(=O)Nc3ccc(C)cc3)oc3ccccc23)n1	8%[46.1 µM]	.	10%[46.1 µM]	-0.5%	-6%	.	.	-12%
C(=NC12CN3CN(CN(C3)C1)C2)c1cccnc1	17%	-2%	19%	2.6%	7%	2%	-8%	0%
CCOC(=O)c1c(-c2ccc(C)o2)csc1NC(=O)COC(=O)c1cccs1	?	-22%	10%[46.1 µM]	-21%	?	-3%	-39%	-14%
COc1ccc(/C=N/NC(=O)c2cc(C)oc2C)cc1OCc1ccccc1	?	-4%	?	.	?	-2%	-1%	.
CC(C)(C)C(=O)N=C1SC2CS(=O)(=O)CC2N1c1ccc2c(c1)OCO2 (configuration not stated)	-2%	1%	25%	-2.9%	1%	16%	1%	3%
C/C(=N\NC(=O)c1ccc(CSc2nc(C)cc(C)n2)cc1)C1CCCCC1	-1%	-18%	?	-0.6%	-14%	13%	?	7%
Cc1nnc(SCC(=O)N2CCc3ccccc32)n1-c1ccccc1	-28%	.	-1%	1.9%	-25%	1%	-5%	-8%
COC(=O)Cn1cnc2c(C#N)c3n(c2c1=O)CCCC3	-22%[14.3 µM]	6%	10%	8.3%	-20%	-17%	1%	7%
O=C(NCc1ccccc1)C1CC(=O)N(C2CCCCCC2)C1 (configuration not stated)	3%	2%	18%[46.1 µM]	.	0%	10%	.	.
O=C(c1ccc(F)cc1)N1CCC(n2nnc3ccccc32)CC1	-16%	-1%	2%[46.1 µM]	.	-26%	-8%	-8%	.
O=C(NC1CCCc2ccccc21)c1ccc(F)cc1F (configuration not stated)	-3%	0%	?	.	7%	-6%	6%	.
O=C(Nc1ccc(N2CCOCC2)cc1)c1cccc2ccccc12	?	-21%	?	.	0%	5%	3%	.
CN(CC(=O)Nc1ccc(C#N)cc1)Cc1ccc(Cl)c(Cl)c1	5%	-9%	1%	-0.2%	31%[activator]	5%	-38%	0%
COn1c(C)c(C(C)=O)c2c3no[n+]([O-])c3ccc21	-1%	-2%	6%	-1.5%	-20%	-1%	2%	-9%
COc1ccc2[nH]c(=O)c(NC(N)=S)nc2c1	2%	3%	-11%	2.2µM*	-5%	-4%	-4%	1.3µM*
COc1ccc(NC(=O)C(=S)N2CCCC2)cc1	?	2%	?	.	60%[activator]	16µM*	4%	.
CSc1nnc(-c2cc(C)on2)n1-c1ccccc1	10%	-3%	17%	-2.8%	1%	6%	-15%	1%
COCCCN1C(=O)c2ccccc2C1C(=O)NC1CCCCCC1 (configuration not stated)	26%[14.3 µM]	-3%	?	3.9%	-26%	-2%	-4%	9%
COc1cccc(CNC(=O)NCc2noc3ccc(C)cc23)c1	13%[46.1 µM]	.	.	-2.8%	-5%	.	.	0%
O=C(COC(=O)COc1cccc(F)c1)NCCC1=CCCCC1	11%[46.1 µM]	0%	?	.	-8%	24%	-9%	.
